T cruzi inh: T. cruzi replication inhibition | T. cruzi beta-gal in NIH3T3, luminescence, 90 h | inhibition, % (no concentration beside the values) | 300,000 tested, 1.4% active;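 active means mean inhibition across valid replicates above about 55%, limit read from the data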;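 further: signal also drops with host cell toxicity which is not excluded here; 0% = plate median of DMSO wells and 100% = zero luminescence signal; higher percent means less beta-gal luminescence so fewer parasites; stock transfer was 50 nL into about 50 µL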
rRNA inh HTS: selective bacterial rRNA inhibition in E. coli. E. coli WT GFP vs humanized-ribosome RFP mutants, fluorescence, 24 h; stronger effect = lower value; DMSO median 0, no signal -100. GFP signal change (wild-type ribosome), % (no concentration beside the values). 350,000 tested, 1.6% active;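 active means significant combined selectivity score with lowered wild-type GFP, culture density cut under 30%, mutant RFP and density less affected; inactive means any of these conditions unmet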; further: one replicate is shown; some compounds called inactive have numbers as strong as hits
UCH37 inh: inhibitors of human deubiquitinating enzyme UCH37 | purified proteasome/UCH37, Ub-AMC cleavage fluorescence | 330,000 tested, 0.33% active | inhibition, % (concentration not given with the values);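 active means mean of two replicates above 20%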;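 further: 0% = compound-free wells with enzyme and 100% = wells lacking proteasome; stock transfer was 100 nL into about 20 µL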
Target sequence (Q9Y5K5 whole entry, looked up): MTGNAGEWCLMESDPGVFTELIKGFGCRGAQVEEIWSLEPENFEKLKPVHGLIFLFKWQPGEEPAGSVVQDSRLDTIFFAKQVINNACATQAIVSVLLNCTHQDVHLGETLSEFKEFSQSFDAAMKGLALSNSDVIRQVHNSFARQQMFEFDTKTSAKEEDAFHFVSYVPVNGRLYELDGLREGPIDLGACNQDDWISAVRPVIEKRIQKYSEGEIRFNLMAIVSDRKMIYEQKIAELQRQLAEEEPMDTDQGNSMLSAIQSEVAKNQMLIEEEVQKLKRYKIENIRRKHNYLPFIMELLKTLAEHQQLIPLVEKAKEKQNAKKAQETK
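Material: human UCH37 enzyme supplied as purified proteasome complex / Amount: 0.15 nM proteasome as dispensed / Buffer or medium: pH 7.4 Tris-HCl (50 mM) with ovalbumin, ATP-MgCl2, DTT / Times: preincubation 30 min, reaction 25 min, room temperature / Technique: AMC fluorescence from Ub-AMC cleavage, excitation 355 nm, emission 460 nm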
Beta apoptosis: blocks beta cell apoptosis; AID 435005; protection from apoptosis, % (no concentration beside the values); 300,000 tested, 0.8% active; INS-1E cytokine-induced death, ATP luminescence, 48 h; percent of positive-control rescue, neutral wells zero;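 active means all replicates at 75% or more, or half of them and the mean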;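 further: 0% = cytokine-treated negative control wells and 100% = positive control rescue; higher means more ATP so stronger rescue from cytokine killing; wells of about 40 µL received 100 nL stock; the first replicate is given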
FGF22 binding: shifts melting point of recombinant human FGF22; Q9HCT0; recombinant FGF22 thermal shift, SYPRO orange fluorescence; percent of sucrose octasulfate shift, DMSO zero; calls only at 9.99 µM; 340,000 tested, 1.5% active;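 active means melting point raised past a set limit in the mean and every replicate; three in four hits are not shown here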
Target sequence (Q9HCT0 whole entry, looked up): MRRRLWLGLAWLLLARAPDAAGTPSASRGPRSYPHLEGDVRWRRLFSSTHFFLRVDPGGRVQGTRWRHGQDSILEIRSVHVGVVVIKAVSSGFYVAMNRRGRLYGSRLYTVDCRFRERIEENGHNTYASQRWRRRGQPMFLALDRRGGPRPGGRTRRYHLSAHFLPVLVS
MLL AF4-AF9 inh: MLL-AF4/AF9 protein interaction inhibition. 350,000 tested, 0.47% active. AID 651704. AlphaScreen, biotin-AF4 peptide binding to FLAG-AF9. inhibition, % at 10 µM;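 active means every replicate reaching a set inhibition limit, whatever the replicate mean, cut at about 25% in these data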;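 further: 0% = plate neutral control median and 100% = total signal loss; the record names both 10 and 1 µM as test concentration; the first replicate is given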
Target sequence (P42568 whole entry, looked up): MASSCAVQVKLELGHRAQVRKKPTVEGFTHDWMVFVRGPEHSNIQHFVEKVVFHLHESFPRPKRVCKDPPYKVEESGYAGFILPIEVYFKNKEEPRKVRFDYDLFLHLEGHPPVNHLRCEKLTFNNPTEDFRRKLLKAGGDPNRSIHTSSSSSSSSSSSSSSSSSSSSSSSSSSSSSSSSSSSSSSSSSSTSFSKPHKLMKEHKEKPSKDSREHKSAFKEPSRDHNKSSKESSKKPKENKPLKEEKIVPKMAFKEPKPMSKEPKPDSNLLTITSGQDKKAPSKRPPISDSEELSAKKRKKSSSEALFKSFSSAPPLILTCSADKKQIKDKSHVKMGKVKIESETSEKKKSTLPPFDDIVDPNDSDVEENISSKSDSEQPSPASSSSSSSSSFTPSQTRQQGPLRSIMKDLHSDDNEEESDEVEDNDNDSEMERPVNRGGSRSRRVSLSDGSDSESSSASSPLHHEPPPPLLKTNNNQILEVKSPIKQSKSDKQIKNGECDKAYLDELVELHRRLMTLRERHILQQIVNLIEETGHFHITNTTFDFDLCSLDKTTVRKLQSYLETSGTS
Bfl-1 A1 inh: inhibitors of the anti-apoptotic protein A1, read as caspase activation | MEF A1-2A-BIM cells, Caspase-Glo 3/7 luminescence, 3 h; percent of clofoctol response, vehicle zero | caspase activation, % (no concentration beside the values) | 330,000 tested, 0.066% active | AID 2462;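 active means over half of replicate activation scores above 10%, or exactly half above 10 with the replicate mean above 10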;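 further: wells of about 30 µL received 50 nL stock; many hits fall short of the cut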
E coli growth: inhibitors of Escherichia coli growth. OD600, 23 h; stronger effect = lower value. OD600 absorbance (no concentration beside the values). 330,000 tested, 0.21% active;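 active means OD600 absorbance below the run mean of sample wells minus 3.6 SD, in any replicate, cut at about 0.56 in these data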;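 further: stock transfer was 300 nL into about 60 µL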
rRNA inh HTS OD600: further read-out of rRNA inh HTS, marked with its call; OD600 change, %; measured here: OD600 growth;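 optical density of the mix in the first replicate; 0 = DMSO median and -100 = no signal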
rRNA inh HTS RFP: recorded beside rRNA inh HTS, whose call it bears; RFP signal change, %; measured here: RFP humanized mutant strains;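 first replicate; 0 = DMSO median and -100 = no signal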
Numbers without * were called inactive; i = inactive; nt = no result given. The list is partial, so the mix of outcomes need not match the whole.

#	Molecule	T cruzi inh	rRNA inh HTS	rRNA inh HTS OD600	rRNA inh HTS RFP	UCH37 inh	Beta apoptosis	FGF22 binding	MLL AF4-AF9 inh	Bfl-1 A1 inh	E coli growth
1	COc1cc(/C=N/n2cnc3scc(-c4cccs4)c3c2=O)cc(OC)c1OC	19	3	3	-9.4	nt	8	i	2.3	0.9	nt
2	C/C(=N\NC(=O)CN1CCCCC1)c1ccccc1O	-6	8	5	0.1	nt	18	i	2.2	0.1	nt
3	CCOC(=O)c1cc(-c2ccc(N3CCOCC3)cc2)nn1-c1ccccc1C(=O)O	-5	17	8	-0.6	nt	-3	i	-19	0.2	nt
4	CC1CCCN(C(=O)c2ccc([N+](=O)[O-])o2)C1 (stereo not given)	23	-8	-2	-3.2	6.9	-10	i	0.2	-0.1	0.68
5	NC(=O)CC[C@H](NC(=O)c1ccc(Cl)cc1)C(=O)NNC(=O)COc1cccc(Br)c1	nt	-7	-3	1.5	5.7	-2	i	-1.2	-1.0	0.67
6	Cc1ccnc(NC(=O)C2CCN(S(=O)(=O)c3cccc4nonc34)CC2)c1	3	nt	nt	nt	4.4	-13	nt	nt	1.3	0.75
7	CCOc1ccc(OCC)c(NC(=O)CN2CCN(C(=O)c3ccco3)CC2)c1	-2	nt	nt	nt	3.7	-1	nt	nt	0.1	0.68
8	CCC(C)(C)NC(=O)CN(C(=O)CCC(=O)Nc1nccs1)c1ccc2c(c1)OCO2	0	9	7	0.1	0.7	-5	i	1.2	0.5	0.69
9	CC1(c2nnc(-c3ccc(F)cc3)o2)CC(c2cccc(Cl)c2)=NO1 (stereo not given)	-8	-9	-24	-8.3	-2.1	-12	i	-13	1.0	0.65
10	Cc1cc(-c2nc3ncccc3o2)ccc1NC(=S)NC(=O)c1ccco1	2	3	-2	0.4	-2.3	14	i	-2.9	-0.8	0.66
11	COc1ccccc1N1CCN(C(=O)c2ccc(CN3CCOCC3)cc2)CC1	-17	7	7	-3.4	-1.4	-5	i	1.5	0.0	0.64
12	COc1cccc(CNC(=O)C2CCCN(C(=O)c3ccc(Cl)cc3)C2)c1 (stereo not given)	nt	nt	nt	nt	0.7	nt	i	-1.2	nt	0.67
13	O=CN1c2ccccc2CSc2ccccc21	-23	1	4	0.2	7.3	nt	i	-2.0	0.6	0.63
14	Cc1ccccc1-c1cc(C(=O)NCc2ccco2)n(CC2CC(c3cccnc3)=NO2)n1 (stereo not given)	nt	-1	4	-2.0	0.0	-4	i	-14	-1.3	0.66
15	CC1=C(C(=O)N2CCOCC2)C(c2ccc(C)cc2)NC(=S)N1 (stereo not given)	-14	2	4	-2.2	-0.1	-9	i	-2.6	1.4	0.66
16	COc1ccc(S(=O)(=O)NCC(=O)NCc2cc(=O)n(C)c(=O)n2C)cc1	-14	-1	-11	-3.0	0.3	1	i	2.5	-0.1	0.61
17	COc1cc(OC)c(OC)cc1/C=C1\SC(N2CCCCC2)=NC1=O	4	-7	-1	-1.3	1.3	2	i	0.0	1.4	0.74
18	O=C(c1cccc(S(=O)(=O)NCc2ccccc2)c1)N1CCCC(C(F)(F)F)C1 (stereo not given)	-3	-6	-11	-3.1	4.5	-3	i	-9.6	0.6	0.65
19	Cc1c(C)n2c(SCC(=O)N3CC(C)OC(C)C3)nnc2[nH]c1=O (stereo not given)	0	16	11	-0.4	1.9	-3	i	-0.5	-0.2	0.62
20	Cc1ccc(S(=O)(=O)N/N=C/c2ccc(OCC(=O)N3CCOCC3)cc2)cc1	6	17	8	2.3	nt	nt	nt	-0.8	0.4	nt

Fetched by structure from above, two records:
#	Molecule	T cruzi inh	rRNA inh HTS	rRNA inh HTS OD600	rRNA inh HTS RFP	UCH37 inh	Beta apoptosis	FGF22 binding	MLL AF4-AF9 inh	Bfl-1 A1 inh	E coli growth
12	COc1cccc(CNC(=O)C2CCCN(C(=O)c3ccc(Cl)cc3)C2)c1 (stereo not given)	nt	nt	nt	nt	0.7	nt	i	-1.2	nt	0.67
15	CC1=C(C(=O)N2CCOCC2)C(c2ccc(C)cc2)NC(=S)N1 (stereo not given)	-14	2	4	-2.2	-0.1	-9	i	-2.6	1.4	0.66

(next part)
#	Molecule	T cruzi inh	rRNA inh HTS	rRNA inh HTS OD600	rRNA inh HTS RFP	UCH37 inh	Beta apoptosis	FGF22 binding	MLL AF4-AF9 inh	Bfl-1 A1 inh	E coli growth
21	CC(C)c1nnc(NC(=O)CCN2C(=O)c3ccccc3C2=O)s1	3	nt	nt	nt	4.0	-8	nt	nt	1.1	0.7
22	CCCC1(C)C(C#N)C(=O)NC(=O)C1C#N (stereo not given)	nt	4	5	-4.6	3.4	nt	i	1.5	nt	0.7
23	COc1ccccc1N1CCN(c2cc(N3CCCC3)nc(C)n2)CC1	28	nt	nt	nt	2.3	0	nt	nt	-0.3	0.65
24	CCc1nnc2sc(-c3ccc(NC(=O)c4ccco4)cc3)nn12	-12	nt	nt	nt	-1.1	-10	nt	nt	0.6	0.66
25	CNc1cc(N2CCCCCC2)ccc1[N+](=O)[O-]	9	nt	nt	nt	9.0	-4	nt	nt	0.3	0.6
26	COc1cccc(C(=O)NNC(=O)C(=O)Nc2cccc3ccccc23)c1	2	-17	-26	0.7	2.6	0	i	2.0	-0.4	0.65
27	Cc1c(NC(=O)c2ncn[nH]2)cccc1-c1nc2ccccc2s1	-8	nt	nt	nt	1.4	0	nt	nt	-0.1	0.66
28	COC(=O)C1CCN(C(=O)c2ccc3nc(-c4cccc(OC)c4)oc3c2)CC1	1	-8	-11	-0.3	-0.3	-1	i	-1.8	0.0	0.72
29	CCSC1=C(C#N)C(c2cccc(Br)c2)CC(=O)N1 (stereo not given)	0	1	-2	-6.5	0.0	-7	i	-33	-0.3	0.7
30	CN(C)CCNc1cc(-c2ccncc2)nc2ccccc12	30	20	-3	-11	-0.3	14	i	3.0	2.5	0.69
31	O=[N+]([O-])c1cccc(-c2ccc(C(=S)N3CCN(c4ccc(F)cc4)CC3)o2)c1	21	-1	10	8.1	10	nt	i	-3.3	0.0	0.69
32	Cc1ccccc1N(C)S(=O)(=O)c1nnc(NC(=O)c2ccccc2F)s1	-24	-3	1	0.7	2.7	7	i	-0.7	-1.6	0.69
33	CSCCC(NC(=O)c1ccco1)C(=O)NCCc1ccc(F)cc1 (stereo not given)	nt	nt	nt	nt	1.4	-2	i	0.5	1.5	0.65
34	COc1ccc(S(=O)(=O)N2CCCC(C(=O)NCC3CCCO3)C2)cc1Cl (stereo not given)	-4	nt	nt	nt	-0.6	nt	i	0.4	0.3	0.67
35	Cc1ccccc1NC(=O)c1ccc(C)c(S(=O)(=O)Nc2cccnc2)c1	-3	2	3	-1.0	3.5	nt	i	-1.6	0.7	0.7
36	Cc1ccc2nc(N(CCCN(C)C)C(=O)CS(=O)(=O)c3ccccc3)sc2c1	45	2	-3	-0.1	-0.6	nt	i	0.1	-0.3	0.68
37	CC(C)N(C(=O)Cn1cc(S(=O)(=O)CC(=O)NC2CCCCC2)c2ccccc21)C(C)C	10	-1	10	2.8	3.1	-11	i	-5.6	1.1	0.63
38	O=C1C=CC(=O)N1c1ccc(O)cc1	52	0	9	-1.2	4.7	-12	i	nt	-0.5	0.68
39	O=C(Cn1nc(-c2ccccc2)ccc1=O)NCC1CCCO1 (stereo not given)	-20	nt	nt	nt	5.2	-4	nt	nt	2.3	0.66
40	CN(C)c1ccc(-n2cc3c(=O)n(C)c(=O)n(C)c3c2)cc1	24	nt	nt	nt	-36	-7	nt	nt	-4.6	0.78
41	COc1ccc(C(=O)C(C)OC(=O)CCN2C(=O)C3CC=CCC3C2=O)cc1 (stereo not given)	nt	4	8	-0.8	-1.6	-5	i	0.1	0.0	0.7
42	Cc1nc2nc(-c3ccccc3)nn2c(C)c1C	-11	12	6	-2.7	1.3	1	i	-2.0	-5.3	0.69
43	Oc1ccc(-n2nnnc2SCc2c(F)cccc2Cl)cc1	-16	-53	-73	-14	2.0	-5	i	-58	1.4	0.64
44	CN(CC(=O)Nc1ccccc1Cl)C(=O)COC(=O)C1=COCCO1	-4	7	12	2.5	-1.7	3	i	-9.0	-0.1	0.68
45	CCOc1ccc(CN(Cc2ccco2)C(c2cccs2)c2nnnn2C(C)(C)C)cc1 (stereo not given)	46	nt	nt	nt	-0.3	7	nt	nt	-0.2	0.74
46	O=C(CCc1ccccc1)N/N=C\c1cc2c(cc1Br)OCO2	-2	-3	-10	-2.5	nt	5	i	1.6	-0.2	nt
47	CC1CCC/C(=C\Nc2ccc(C(=O)O)cc2)C1=O (stereo not given)	-20	6	9	-2.3	16	3	i	-0.3	-5.4	nt
48	Cc1ccc2occ(CN3CCN(c4ccccc4)CC3)c(=O)c2c1	-13	nt	nt	nt	0.1	1	nt	nt	-1.5	0.69
49	COc1ccc(C2/C=C\CN(CC(C)C)CC(=O)N2Cc2cccc(F)c2)cc1 (stereo not given)	nt	-5	-26	-1.4	0.0	nt	i	1.3	nt	0.68
50	CCOC(=O)c1ccc(NS(=O)(=O)c2c(C)nc3sccn3c2=O)cc1	-11	-1	7	10	9.8	2	i	5.2	0.1	0.75
51	CCN(CC)C(=O)CSc1nnc(SCc2ccc(Cl)cc2)s1	18	nt	nt	nt	1.3	2	nt	nt	0.6	0.69
52	O=C(CCC(=O)c1cccs1)OCC(=O)N1CCN(C(=O)c2ccco2)CC1	11	nt	nt	nt	-9.4	-6	nt	nt	0.1	0.73
53	COC(=O)c1cc(-c2ccc(Br)cc2)on1	-26	6	9	-2.9	2.7	-1	i	-4.1	-1.8	0.7
54	COc1ccccc1NC(=O)Nc1nnc(CC(=O)Nc2ccccc2C)s1	-1	2	5	1.1	4.9	4	i	-1.2	0.2	0.63
55	Cc1ccc2cc(NC(=O)c3cccc(F)c3)ccc2n1	12	nt	nt	nt	2.5	1	i	-1.5	-6.8	0.61
56	CCC(CC)C(=O)Nc1cccc(-c2ccc3nncn3n2)c1	-11	7	11	-2.5	1.1	-4	i	0.8	-0.1	0.72
57	COC(=O)C1CCN(C(=O)Cc2c(OC)ccc3cc(Br)ccc23)CC1	13	-14	-16	4.7	3.7	-2	i	-13	0.6	0.68
58	CCOc1cc(/C=C2\NC(=O)NC2=O)ccc1OC(C)C(=O)O (stereo not given)	-6	8	5	1.0	9.6	-2	nt	-3.2	0.7	0.73
59	CC(C)CNS(=O)(=O)c1ccc(S(=O)(=O)N2CCN(CCC#N)CC2)cc1	8	7	5	-0.9	-0.5	0	i	-1.1	0.5	0.69
60	N#CC1=C(N)Oc2n[nH]c(-c3cccnc3)c2C1c1ccc([N+](=O)[O-])o1 (stereo not given)	44	3	3	27	6.5	3	i	0.7	0.8	0.64
61	CN(C)CCNC(=O)C1CCCNC1=O (stereo not given)	30	nt	nt	nt	4.1	-7	nt	nt	0.0	0.66
62	CC(=O)c1ccc(N(CC(=O)NC2CCS(=O)(=O)C2)S(=O)(=O)c2ccc(Cl)cc2)cc1 (stereo not given)	nt	8	9	2.3	0.4	-2	i	0.0	1.9	0.71
63	Cc1cccc(C(=O)NC(=S)N2CCc3ccccc3C2)c1	-5	nt	nt	nt	0.8	-6	nt	nt	-0.2	0.69
64	O=C1/C(=C/c2cccc([N+](=O)[O-])c2)CCc2ccccc21	3	nt	nt	nt	1.3	-2	nt	nt	-0.3	0.73
65	O=C1OCCC1Sc1nnc(-c2ccco2)o1 (stereo not given)	-6	nt	nt	nt	-0.1	nt	nt	nt	-1.0	0.75
